Source: PubChem (Johns Hopkins Ion Channel Center)
KCNQ2 pot – KCNQ2 (rat) channel potentiation; CHO-K1 KCNQ2, FluxOR thallium flux fluorescence; hits give high values; 310,000 tested, 0.54% active; B-score at 10 µM; AID 2239; O88943;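 active = fluorescence ratio B-score at least 3 SD of library B-scores, with initial fluorescence B-score within 3 SD, cut at about 5.3 in these data; same plate scores as AID 2156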;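 also: B-score of peak minus minimum over baseline fluorescence ratio after K+ and Tl+ stimulus; positive B-score means potentiation of KCNQ2 with more thallium influx and brighter signal; only the inactives scoring about 0 or higher are listed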
Target sequence (O88943 whole entry, looked up): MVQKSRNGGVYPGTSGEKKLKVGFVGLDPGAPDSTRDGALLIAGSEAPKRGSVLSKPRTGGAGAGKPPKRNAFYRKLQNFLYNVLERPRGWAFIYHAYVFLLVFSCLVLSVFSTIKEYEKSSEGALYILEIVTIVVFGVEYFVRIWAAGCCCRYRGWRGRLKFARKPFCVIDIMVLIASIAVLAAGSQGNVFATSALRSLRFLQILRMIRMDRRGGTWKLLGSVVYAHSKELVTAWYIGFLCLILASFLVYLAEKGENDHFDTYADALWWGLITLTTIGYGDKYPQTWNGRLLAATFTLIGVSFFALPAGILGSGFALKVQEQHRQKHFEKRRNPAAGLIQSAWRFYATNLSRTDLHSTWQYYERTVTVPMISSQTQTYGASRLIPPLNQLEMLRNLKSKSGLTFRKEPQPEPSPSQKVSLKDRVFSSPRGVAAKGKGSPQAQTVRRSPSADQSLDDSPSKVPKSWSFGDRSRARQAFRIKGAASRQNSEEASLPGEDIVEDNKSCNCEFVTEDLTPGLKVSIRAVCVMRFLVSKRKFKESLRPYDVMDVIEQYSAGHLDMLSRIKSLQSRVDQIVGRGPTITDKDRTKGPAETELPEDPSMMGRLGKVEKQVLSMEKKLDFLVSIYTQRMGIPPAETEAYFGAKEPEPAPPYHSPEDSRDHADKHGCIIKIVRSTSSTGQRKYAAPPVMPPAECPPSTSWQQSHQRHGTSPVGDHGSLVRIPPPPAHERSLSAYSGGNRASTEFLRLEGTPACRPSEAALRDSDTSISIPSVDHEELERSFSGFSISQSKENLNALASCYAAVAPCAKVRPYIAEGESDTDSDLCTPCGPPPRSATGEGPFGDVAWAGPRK
KCNQ2 pot baseline – further read-out of KCNQ2 pot, marked with its call; B-score; compound at 10 µM; measured here: initial fluorescence intensity artifact check;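 brightness before thallium and not channel activity; 0 = typical well and far values either way flag optical interference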
* hit, by the source's call; x = no result given. These rows are one share of the data (hit frequency here may not be typical).

SMILES	KCNQ2 pot	KCNQ2 pot baseline
Fc1ccccc1-c1n[nH]c(=S)n1/N=C/c1c[nH]c2ccccc12	1.72	-0.66
CNC(=O)C(=O)Nc1cc2c3c(c1)CCN3C(=O)CC2	0.2	-1.16
O=C(NCc1ccccc1)C1CCN(S(=O)(=O)N2CCCCCC2)CC1	0.67	-0.09
O=c1cnnc(NCc2ccccc2)[nH]1	0.03	0.61
C/C(=N\NC(=O)c1cccnc1)c1ccc(Br)cc1	1.23	0.83
COc1cccc2c(=O)cc(C)n(CC(=O)Nc3cccc(C)c3)c12	2.3	-2.26
N=c1c(C(=O)NC2CCCC2)cc2c(=O)n3ccccc3nc2n1CCCN1CCOCC1	0.35	2.6
CCN(CC)S(=O)(=O)c1ccc2oc(Nc3ccc(OC)cc3)nc2c1	1.25	0.73
CC(=O)N1CCC(N(CCN2CCOCC2)C(=S)Nc2cc(C)ccc2C)CC1	0.03	0.02
Cc1ccc(S(=O)(=O)N(C)C)cc1NC(=O)c1cc(=O)c2ccccc2o1	0.97	0.32
NC(=O)N/N=C/c1c(F)cccc1F	0.68	-1.93
CCOC(CNc1ncnc2c1cnn2C)OCC	0.45	-2.53
Cc1ccc2nc(Nc3ccc4[nH]c(=O)[nH]c4c3)c(-n3nc(C)cc3C)nc2c1	0.11	-1.16
CN(CC(=O)N1CCOCC1)S(=O)(=O)c1ccc2ccccc2c1	1.12	-1.16
CCC(=O)N1CCc2cc(S(=O)(=O)CCC(=O)NCc3cccc(OC)c3)ccc21	0.91	-0.09
O=C(CC(Sc1n[nH]c(-c2ccccc2)n1)c1ccccc1)NCc1ccccc1 (stereo not given)	1.86	-1.66
COc1ccc(OC)c(S(=O)(=O)NCc2cc(-c3ccccc3)no2)c1	0.44	-0.95
CCCCCOCC1CC(C/C(C)=N/Nc2nc(-c3ccccc3)cs2)C(=O)O1 (stereo not given)	2.78	0.62
O=C(Cn1cncn1)c1ccc(Cl)cc1	1.91	0.04
c1ccc2sc(NC3=NCN(C4CCCCC4)CN3)nc2c1	0.77	-0.94
COCCCn1c(=S)[nH]c2sc3c(c2c1=O)CCCS3	7.23*	-0.02*
O=C(CNC(=O)c1cccs1)N/N=C/c1cccc(Cl)c1	0.55	1.6
O=C(COC(=O)c1ccccc1[N+](=O)[O-])Nc1cccnc1Cl	1.46	0
Cc1ccc(NC(=O)CNCc2ccccc2Cl)cc1S(=O)(=O)N(C)C	1.13	1.81
Cc1ccccc1NC(=O)c1cc(C(=O)c2cc(Cl)ccc2O)cn(-c2ccccc2C)c1=O	-5.6	x
O=C(Cc1ccccc1F)Nc1ccc(Cl)nc1	0.23	-0.07
Cc1ccc(-c2nnc(SCC(=O)N(C)C)nc2-c2ccc(C)cc2)cc1	2.15	1.27
Cc1ccccc1OCC(=O)NCC1CCCO1 (stereo not given)	0.41	0.16
CCOc1ccccc1NC(=O)CSc1nnc(-c2cnccn2)n1C	0.22	-0.24
CCOC(=O)CN1CC23C=CC(O2)C(C(=O)O)C3C1=O (stereo not given)	2.27	-2.44
Cc1ccc(NC(=O)c2sc(C)nc2C)c(C)c1	0.85	-0.27
Cc1cccc(OCC(=O)NC2CCCCCC2)c1C	0.34	-0.4
N#Cc1cc(-c2ccccc2)nc(N2CCNCC2)n1	0.32	1.12
Cc1ccc(C(=O)NCCCNC(=O)c2ccco2)cc1	0.18	-0.42
Cc1cc(C)cc(NC(=O)N2CCCCCCC2)c1	0.1	0.21
CCOc1ccc2c(c1)N(C(=O)CN1C(=O)CCC1=O)C(C)(C)C=C2C	0.77	0
CC(=O)Nc1ccc(C(=O)Cn2nnc3ccccc3c2=O)cc1	0.72	1.04
CCCCCNC(=O)c1cc(S(=O)(=O)N2CCCCC2)ccc1F	1.67	0.58
N/C(=N\OC(=O)c1cccc([N+](=O)[O-])c1)c1cccnc1	0.02	1.06
COC(=O)CC1=NC(=O)CS1	0.77	0.16
Cc1cc(C(=O)Nc2ccon2)cs1	0.05	0
O=C(COC(=O)c1ccc(F)cc1F)NCCNC(=O)COC(=O)c1ccc(F)cc1F	0.49	0.25
CCCCNC(=O)CSc1nc(CCC)nc2ccccc12	0.63	1.31
O=C(CSc1nc2ccc(NC(=O)CSc3nnnn3Cc3ccccc3)cc2s1)Nc1ccccc1	0.23	-1.99
CCOc1cc(OCC)cc(C(=O)Nc2cccnc2)c1	1.33	-3.66
CCOC(=O)C1=C(COC(=O)c2cccs2)NC(=O)NC1C (stereo not given)	1.17	0.58
CC(C)(C)c1ccc(OCCC(=O)OCC(=O)NC2CCS(=O)(=O)C2)cc1 (stereo not given)	0.73	0.76
O=C(Nc1ncc(Cc2cccc(Cl)c2Cl)s1)C1CCCO1 (stereo not given)	1.44	-2.04
C=CCOC(=O)C1=C[C@@H](c2ccc(C(F)(F)F)cc2)C[C@@H](OCCCCO)O1	0.09	-1.29
COc1ccc(CN2C(=O)NC3(CCCCC3)C2=O)cc1F	0.77	-0.88
Cc1ccc(C(=O)N2CCSCC2)cc1	0.05	0.03
CCOc1ccccc1NC(=O)CN1C(=O)CSC(C)C1=O (stereo not given)	0.07	0.94
O=C(CN1CCN(c2ncccn2)CC1)Nc1ccccc1C(F)(F)F	1.61	-0.35
COC(=O)c1ccc(-c2noc(CN(C)CC3CCCCO3)n2)cc1 (stereo not given)	1.02	-1.21
CCOC(=O)Cn1c(=O)oc2cc(S(=O)(=O)N3CCCC(C(=O)OCC)C3)ccc21 (stereo not given)	1.17	0.74
NS(=O)(=O)c1ccc(CNC(=O)c2cc(=O)c3cc(Cl)ccc3o2)cc1	0.36	0.03
COCCn1c(Cc2ccccc2)nnc1SCC(=O)NC1CCCCC1	0.63	-0.31
Cc1nnc(SCC(=O)Nc2nc(C(C)(C)C)cs2)s1	1.34	1.14
CC(C)Cc1nc2n[nH]c(N)c2c2c1CCCC2	2.59	-1.96
O=C(O)C(F)=C(c1ccccc1)c1ccccc1	0.37	-0.9

Reprinted from the part before: 3 entries, followed by the next part.
SMILES	KCNQ2 pot	KCNQ2 pot baseline
Cc1nnc(SCC(=O)Nc2nc(C(C)(C)C)cs2)s1	1.34	1.14
CC(C)Cc1nc2n[nH]c(N)c2c2c1CCCC2	2.59	-1.96
O=C(O)C(F)=C(c1ccccc1)c1ccccc1	0.37	-0.9
CCOC(=O)C1=C(CS(=O)(=O)c2ccc(F)cc2)NC(=O)NC1c1ccc(O)c(O)c1 (stereo not given)	0.93	1.23
Cc1ccnc(NC(=O)c2ccco2)n1	2.05	0.98
COc1ccc(NC(=O)N2CCN(S(C)(=O)=O)CC2)cc1	2.38	-1.36
COC(=O)c1cc(=O)n(Cc2cccs2)c(=Nc2ccc(F)cc2)s1	0.39	-0.19
CCCC(C)NC(=O)C1CC(=O)N(CCc2ccc(F)cc2)C1 (stereo not given)	0.1	0.96
C(=N\n1cnnc1)/C1CCCCC1	1.89	0.19
C/C(=N\NC(=O)c1ccc(CSc2nncn2C)cc1)c1ccc(C#N)cc1	0.55	-0.49
COc1cccc(/C=N/NC(=O)c2ccccc2)c1OS(=O)(=O)c1ccccc1	5.14	-1.81
C[n+]1cccc(C(=O)N/N=C/c2ccc3c(c2)OCO3)c1	1.28	0.31
CCOC(=O)Cc1csc(NC(=O)CCSc2ccccc2)n1	0.19	-1.53
CN1CCN(C(=O)c2cccn(Cc3cccc(Cl)c3)c2=O)CC1	0.68	0.04
CSc1ccccc1NC(=O)c1cnc2sc(C)cn2c1=O	0.09	0.47
CC(C)CC(=O)Nc1nc(-c2ccc(S(=O)(=O)N3CCOCC3)cc2)cs1	0.52	-1.15
CCn1c(O)c(N=NC2=NC(=O)CS2)c2cc(C)ccc21	5.92*	-0.74*
CS(=O)(=O)N1Cc2ccccc2CC1C(=O)O (stereo not given)	0.08	-1.13
O=C(OCCN1CCCCC1)c1cc2ccccc2o1	0.05	-0.48
COc1ccccc1N(CC(N)=O)S(=O)(=O)c1ccc(C)cc1	1.78	0
COc1cccc(C(=O)N2CCN(C3CCC(c4ccccc4)CC3)CC2)c1OC (stereo not given)	0.78	-0.13
Cc1noc(C)c1C(=O)NCc1ccccc1	1.76	-1.68
Cc1ccc2c(c1)c1c3n2CCNC3CCC1 (stereo not given)	1.73	1.02
CCn1c2ccccc2c2n[nH]c(=S)nc21	0.06	0.06
O=C(c1ccccc1Cl)N1CCN(Cc2ccc3c(c2)OCO3)CC1	0.43	-0.3
COc1ccccc1OCC(=O)Nc1ccccc1C(=O)NC1CC1	0.06	0.89
Cc1cc(NS(=O)(=O)c2ccc(Br)s2)no1	1.37	-0.53
O=C(NCCc1ccccn1)C(F)(F)C(F)(F)C(F)(F)C(F)(F)C(F)(F)C(F)(F)C(F)(F)C(F)F	0.09	0.13
O=C(NCCCc1ccccc1)N1CCOCC1	0.18	-0.23
CCOc1ccc(C2NCCc3cc(OC)c(OC)cc32)cc1OC (stereo not given)	1.02	0.97
Cc1cnc(C)c(N2CCN(Cc3nc(-c4ccccc4)no3)CC2)n1	0.49	-0.11
O=C(NCc1ccco1)c1nnc(Cc2ccc(Cl)cc2)o1	1.95	0.01
CCOc1ccc(NC(=O)c2ccc(NC(=S)NC3CCCCC3)cc2)cc1	0.45	-0.8

7 entries already listed, arranged by their value in KCNQ2 pot, largest number first.
Structure | KCNQ2 pot | KCNQ2 pot baseline
O=C(NCc1ccco1)c1nnc(Cc2ccc(Cl)cc2)o1 | 1.95 | 0.01
O=C(Cn1cncn1)c1ccc(Cl)cc1 | 1.91 | 0.04
CN(CC(=O)N1CCOCC1)S(=O)(=O)c1ccc2ccccc2c1 | 1.12 | -1.16
Cc1ccc(C(=O)NCCCNC(=O)c2ccco2)cc1 | 0.18 | -0.42
O=C(NCCc1ccccn1)C(F)(F)C(F)(F)C(F)(F)C(F)(F)C(F)(F)C(F)(F)C(F)(F)C(F)F | 0.09 | 0.13
CS(=O)(=O)N1Cc2ccccc2CC1C(=O)O (stereo not given) | 0.08 | -1.13
CCOc1ccccc1NC(=O)CN1C(=O)CSC(C)C1=O (stereo not given) | 0.07 | 0.94

The listing continues.
SMILES	KCNQ2 pot	KCNQ2 pot baseline
COc1ccc(N2CCN(C(=O)CS(=O)Cc3nc(-c4ccc(OC)c(OC)c4)oc3C)CC2)cc1 (stereo not given)	0.3	0.91
COC(=O)c1cccc(NC(=O)CC2C(=O)NCCN2C(=O)c2ccc(F)cc2F)c1 (stereo not given)	0.18	0.84
CCOc1ccc(OCCC(=O)N2CCN(S(=O)(=O)c3ccc(F)cc3)CC2)cc1	1.13	-0.39
C[C@@H]1C(=O)OC[C@H]1NC(=O)OCc1ccccc1	0.56	0.31
CN(C(=O)c1ccc(=O)n(Cc2ccc(Cl)cc2)c1)c1ccccc1	1.93	-0.55
Cc1ccc(N(C)S(=O)(=O)c2cccc(C(=O)Nc3nnc(C4CC4)s3)c2)cc1	0.03	1.01
CC(=O)CC(C)(C)NC(C)=S	1.18	-1.57
Cc1ccc(NP(=O)(c2ccc(N(C)C)cc2NC(=O)c2cccs2)N2CCOCC2)cc1 (stereo not given)	1.33	-0.03
CCn1c(SCC(=O)Nc2cc(C)on2)nnc1-c1ccco1	0.4	1.17
Cc1ccc(/C=N/NC(=O)c2nnn(-c3nonc3N)c2-c2ccc3c(c2)OCO3)s1	0.58	0.7
Cc1cc(C)c2c(c1)cc(C)c1nnc(SCC(=O)Nc3cc(C)on3)n12	1.27	-0.01
CO/N=C1\CCn2c1c(C)c1ccccc12	1.68	-0.75
CN1C(=O)C(CC(=O)NC2CCCCC2)N(C)C1=O (stereo not given)	0.7	-1.07
COCC(=O)NCCc1ccc(S(N)(=O)=O)cc1	1.58	0.06
CC1CCCCN1C(=O)CSc1nnc(Cc2ccccc2)n1C (stereo not given)	0.38	-0.04

Compound profiles, from the list above:
Entry for CC(=O)CC(C)(C)NC(C)=S → KCNQ2 pot = 1.18; KCNQ2 pot baseline = -1.57
Entry for Cc1cc(C)c2c(c1)cc(C)c1nnc(SCC(=O)Nc3cc(C)on3)n12 → KCNQ2 pot = 1.27; KCNQ2 pot baseline = -0.01

Further records.
SMILES	KCNQ2 pot	KCNQ2 pot baseline
CC(C)c1ccc(N2C(=O)CSC23C(=O)N2CCCc4cccc3c42)cc1 (stereo not given)	0.27	-0.88
CCCCCCC1CC(/C(C)=N\NC(N)=O)OC1=O (stereo not given)	2.06	3.06
Cc1c(Cc2ccccc2)c(=O)oc2cc(O)ccc12	2.14	-0.53
CCn1cc(C(=O)NCC(C)C)c(=O)c2cc(F)c(N3CCN(C(=O)c4ccco4)CC3)cc21	1.64	0.19
COc1ccccc1CC(=O)Nc1ccc([N+](=O)[O-])cc1O	0.35	-0.48
CCCOc1ccc(/C(O)=C2/C(=O)C(=O)N(c3cc(C)on3)C2c2ccc(C(=O)OC)cc2)cc1 (stereo not given)	0.99	0.45
COc1ccc(C(=O)Nc2ccc(C(=O)N3CCOCC3)cc2)cc1OC	0.41	1.27
CC(=O)c1cccc(NC(=S)NC2CCCCC2)c1	0.7	0.35
S=C(NCc1cccs1)Nc1ccccc1	0.61	0.98
COc1cc(C(=O)NCc2nnc(SCC(=O)N3CCCC3)o2)cc(OC)c1OC	0.79	-2.45
COc1ccc(NS(=O)(=O)c2ccc(N3CC(O)=C(c4ccccc4)C3=N)cc2)cc1	0.09	-0.65
N#C/C=C1/NC(=O)c2ccccc2S1	0.62	0.08
CCOC(=O)N1CCN(C(=O)CSc2nc3ccccc3c(=O)n2-c2ccccc2)CC1	0.25	0.37
O=C(COc1ccc(Br)cc1)Nc1nc(-c2cccnc2)cs1	0.34	-1.15
COc1cc(C2NC(=O)NC(C)=C2C(=O)OC2CCCCC2)cc(Br)c1O (stereo not given)	1.51	-0.08
O=C1c2ccccc2C(=O)c2c(NCc3cccnc3)cccc21	0.03	0.02
C[C@@H]1CCC(=O)N(CC[C@H](N=[N+]=[N-])c2ccccc2)CC1	0.01	-0.08
CCS(=O)(=O)Nc1cccc(C2=NN(S(=O)(=O)c3ccccc3)C(c3ccco3)C2)c1 (stereo not given)	0.33	0.16
